Autofluor counter = flagged as autofluorescent in microsphere protease counterscreen | compound autofluorescence counterscreen, microsphere flow cytometry; hits give high values | actives 3.1% (n = 360,000) | fluorescence intensity (test concentration not listed);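 active means at least 3 SD above the mean of all compounds, about 16000 in these data; inconclusive means too few beads counted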;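 further: 100 nL of 1 mM stock went into each well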
Sa ugtP lethal = growth inhibition of S. aureus ugtP deletion strain; S. aureus RN4220 ugtP deletion, OD600 growth, 16 h; some inactives read as strong as hits; growth inhibition, % (test concentration not listed); actives 0.54% (n = 330,000);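 active means z-score under -3 and OD600 up to 0.15 on both plates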;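 further: plate controls were untreated wells for no effect and antibiotic for full effect; wells of about 80 µL received 100 nL stock; the first replicate is given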
Mtb hypoxia inh = reduces hypoxia-regulated biosensor signal in M. tuberculosis. actives 0.1% (n = 300,000). M. tuberculosis hypoxia-regulated fluorescent reporter, fluorescence. fluorescence inhibition, % (no concentration beside the values);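 active means 35 to 45% if threefold the growth effect, above 45% if 1.5-fold the growth effect; inactive means the rest, general growth blockers included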;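 further: wells of about 50 µL received 100 nL stock; 0% = vehicle wells and 100% = reference inhibitor wells; whole bacteria with a GFP reporter of the hypoxia response; strong numbers were not always called active; many hits fall short of the cut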
BJeLR viability = kills HRASV12-expressing BJeLR cells. BJeLR (HRASV12) viability, CellTiter-Glo ATP luminescence, 48 h; reference of the scale not given here. actives 0.17% (n = 300,000). AID 1554. inhibition, % (test concentration not listed);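 active means replicate mean above 50%; inconclusive means above 50% but judged a plate artefact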;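 further: 50 nL library stock added to about 25 µL; numbers are from one replicate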
PrP UTR inh = inhibition of PrP 5' UTR reporter expression; inhibition, % (no concentration beside the values); actives 0.35% (n = 340,000); cell-based PrP 5' UTR mRNA reporter, plate reader;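 active means every replicate at 50% or more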;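 further: 0 = median of the neutral control wells; tested in H4 reporter cells; numbers are from one replicate; inactives centre near -14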
Sa RN4220 lethal = S. aureus RN4220 growth inhibition. OD600, 16 h. inhibition, % (test concentration not listed). actives 0.33% (n = 330,000). AID 1259311;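 active means z-score of -3 or lower and OD600 up to 0.18 on both plates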;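 further: plate controls were untreated cells for no effect and reference antibiotic for full effect; stock transfer was 100 nL into about 80 µL; one replicate is shown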
Mtb hypoxia inh growth = further read-out of Mtb hypoxia inh, marked with its call; growth inhibition, %; measured here: M. tuberculosis growth (absorbance);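 0% = vehicle and 100% = reference antibiotic; read after six days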
* = called active by the depositor; ? = inconclusive; . = not tested or not shown.

SMILES	Autofluor counter	Sa ugtP lethal	Mtb hypoxia inh	Mtb hypoxia inh growth	BJeLR viability	PrP UTR inh	Sa RN4220 lethal
CCOc1ccc(CCNC(=O)COn2nnc3ccc(S(=O)(=O)N4CCOCC4)cc32)cc1OCC	?	11.6	5.1	-2.0	-4.8	-5.4	3.8
COC(=O)CSc1n[nH]c(-c2cccnc2)n1	12894	1.7	1.6	7.2	2.1	-27.2	9.3
Cc1ccccc1NC(=O)CCCNC(=O)c1ccc(Cl)cc1	3057	12.5	2.3	-4.3	4.9	2.5	3.4
O=C(COc1ccccc1Cl)NCc1nc(-c2ccccc2)no1	5578	-4.8	4.4	8.3	3.9	-23.5	-8.1
CC(=NNC(N)=O)c1ccccc1	.	3.3	4.7	0.2	.	.	1.2
CC1CCc2sc3ncn4nc(C(=O)NCc5ccco5)nc4c3c2C1 (stereo not given)	10558	7.7	0.9	0.5	-5.4	-14.7	2.5
CC(C)(C)C(=O)Cn1ncc(Cl)c(Cl)c1=O	2071	2.2	11.7	2.2	16.4	-13.5	3.7
O=C(O)c1cc(-c2cccnc2)nc2ccccc12	4315	-0.6	-0.1	3.0	0.7	-19.5	4.5
O=C1CC(Cc2ccccc2)C(=O)N1c1ncccn1 (stereo not given)	3337	2.1	-6.7	-2.6	13.0	-14.8	4.9
COc1ccc(N(CC(=O)N2CCCCCC2)S(=O)(=O)c2c(C)[nH]c(=O)[nH]c2=O)cc1	5531	15.9	7.1	2.3	-17.7	-4.1	6.1
COC(CNC(=O)c1cccc2c1C(=O)N(Cc1cccnc1)C2)OC	9255	2.3	-7.1	16.5	1.1	-24.0	3.6
CCC(C)NCCOc1ccc(C)cc1[N+](=O)[O-] (stereo not given)	4373	0.3	9.5	13.3	-9.8	-9.9	3.6
CN1CCN(S(=O)(=O)c2ccc(NC(=O)c3cccc(S(=O)(=O)N4CCCC4)c3)cc2)CC1	3926	4.6	8.4	2.8	-7.7	-10.6	5.7
Cc1cc(S(=O)(=O)N2CCCCCC2)c(Cl)cc1Cl	8595	-4.4	14.1	20.7	-4.5	-0.7	8.6
CCSCCOC(=O)C1=C(C)N(C)C(=O)NC1c1ccc2c(c1)OCO2 (stereo not given)	3137	2.5	-0.9	-8.9	-8.2	-8.9	2.5
CCOC(CNC(=O)c1ccc(N2CCc3ccccc32)c([N+](=O)[O-])c1)OCC	2581	-6.3	8.4	0.1	3.0	-8.8	3.9
O=C(NNC(=O)C12CC3CC(CC(C3)C1)C2)c1ccccn1	4276	0.9	-0.3	9.2	-5.3	8.2	4.0
COc1ccccc1CNC(=O)C1CCC(CNc2c(N3CCC(C)CC3)c(=O)c2=O)CC1 (stereo not given)	4891	0.8	-2.2	5.0	12.0	-14.5	2.9
CCN1CCN(C(=S)Nc2ccc3nc(N4CCN(C)CC4)cc(C)c3c2)CC1	9137	0.2	-0.7	3.8	-1.7	-20.3	1.4
O=[N+]([O-])c1ccccc1S(=O)(=O)N1CCN(Cc2ccc3c(c2)OCO3)CC1	4801	0.7	7.4	1.2	-10.5	-32.8	4.0
CCOc1ccc(N2C(=O)S/C(=C\c3cccn3C)C2=O)cc1	2531	-1.1	3.3	0.4	-4.0	-26.6	4.1
O=C(Nc1ccccc1F)c1ccc(Cn2cc(Br)cn2)cc1	2492	12.1	17.4	4.6	-6.4	-33.4	2.2
O=C(NCc1ccccc1)c1ccc2c(c1)S(=O)(=O)c1cc(Cl)ccc1C2=O	2886	11.7	12.8	7.2	.	-12.8	9.1
Cc1cc(N)n2ncc(-c3cccc(Br)c3)c2n1	5793	1.5	4.0	-9.6	.	-37.3	-7.2
Cc1ccc(CSCCNC(=O)c2ccc(NS(C)(=O)=O)cc2)cc1	4227	5.1	5.1	5.6	2.4	-14.5	1.4

14 consecutive records from above:
SMILES	Autofluor counter	Sa ugtP lethal	Mtb hypoxia inh	Mtb hypoxia inh growth	BJeLR viability	PrP UTR inh	Sa RN4220 lethal
CCOc1ccc(CCNC(=O)COn2nnc3ccc(S(=O)(=O)N4CCOCC4)cc32)cc1OCC	?	11.6	5.1	-2.0	-4.8	-5.4	3.8
COC(=O)CSc1n[nH]c(-c2cccnc2)n1	12894	1.7	1.6	7.2	2.1	-27.2	9.3
Cc1ccccc1NC(=O)CCCNC(=O)c1ccc(Cl)cc1	3057	12.5	2.3	-4.3	4.9	2.5	3.4
O=C(COc1ccccc1Cl)NCc1nc(-c2ccccc2)no1	5578	-4.8	4.4	8.3	3.9	-23.5	-8.1
CC(=NNC(N)=O)c1ccccc1	.	3.3	4.7	0.2	.	.	1.2
CC1CCc2sc3ncn4nc(C(=O)NCc5ccco5)nc4c3c2C1 (stereo not given)	10558	7.7	0.9	0.5	-5.4	-14.7	2.5
CC(C)(C)C(=O)Cn1ncc(Cl)c(Cl)c1=O	2071	2.2	11.7	2.2	16.4	-13.5	3.7
O=C(O)c1cc(-c2cccnc2)nc2ccccc12	4315	-0.6	-0.1	3.0	0.7	-19.5	4.5
O=C1CC(Cc2ccccc2)C(=O)N1c1ncccn1 (stereo not given)	3337	2.1	-6.7	-2.6	13.0	-14.8	4.9
COc1ccc(N(CC(=O)N2CCCCCC2)S(=O)(=O)c2c(C)[nH]c(=O)[nH]c2=O)cc1	5531	15.9	7.1	2.3	-17.7	-4.1	6.1
COC(CNC(=O)c1cccc2c1C(=O)N(Cc1cccnc1)C2)OC	9255	2.3	-7.1	16.5	1.1	-24.0	3.6
CCC(C)NCCOc1ccc(C)cc1[N+](=O)[O-] (stereo not given)	4373	0.3	9.5	13.3	-9.8	-9.9	3.6
CN1CCN(S(=O)(=O)c2ccc(NC(=O)c3cccc(S(=O)(=O)N4CCCC4)c3)cc2)CC1	3926	4.6	8.4	2.8	-7.7	-10.6	5.7
Cc1cc(S(=O)(=O)N2CCCCCC2)c(Cl)cc1Cl	8595	-4.4	14.1	20.7	-4.5	-0.7	8.6

The list continues:
SMILES	Autofluor counter	Sa ugtP lethal	Mtb hypoxia inh	Mtb hypoxia inh growth	BJeLR viability	PrP UTR inh	Sa RN4220 lethal
Clc1ccc(CNCCCSc2ncccn2)cc1	3962	-2.4	-6.6	-4.5	-6.4	-10.8	0.9
COc1cc(CN2CCNC(=O)C2CC(=O)NC2CCC2)cc(OC)c1 (stereo not given)	5641	7.2	5.6	-1.6	2.3	-4.5	5.9
CCOC(=O)c1c(NC(=O)C2COc3ccccc3O2)sc(C(C)=O)c1C (stereo not given)	7068	-2.6	-5.7	-4.9	0.0	-16.3	-3.7
Cc1cc(=O)oc2cc(OCC(=O)NCC3CCCO3)ccc12 (stereo not given)	2834	10.1	16.0	1.1	-1.3	-8.2	6.3
COCCN(C(=O)c1cc2c(s1)CCC2)c1c(N)n(CC(C)C)c(=O)[nH]c1=O	4331	3.9	-0.9	-0.3	.	-8.8	3.3
CCc1nnc(NC(=O)COc2ccc3ccccc3c2)s1	3381	10.6	4.7	7.1	2.6	-29.7	-4.6
CC(=O)Nc1ccc(S(=O)(=O)N(Cc2cccnc2)Cc2cc3ccc(C)cc3[nH]c2=O)cc1	5536	4.2	2.0	5.9	-3.3	-13.8	3.0
COc1cc(CN=C(C)c2c(O)n(C)c(=O)n(C)c2=O)cc(OC)c1	6101	5.9	16.7	2.5	-0.8	-13.2	4.4
CCc1ccccc1NC(=O)CN1CCN(C(=O)CNC(=O)c2ccc(-c3ccccc3)cc2)CC1	3774	-5.9	-6.8	-0.3	.	0.8	9.0
Cc1cc(Cl)ccc1NC(=S)NCCc1ccc(Cl)cc1	3256	-23.3	6.2	6.5	7.1	-4.8	3.2
CC(Cc1cccs1)NC(=O)Nc1ccc([N+](=O)[O-])cc1 (stereo not given)	2355	-4.7	6.1	18.9	-5.4	-51.4	-1.0
CN(C)/C=C(\C#N)C(=O)NN=Cc1ccccc1	.	2.8	3.8	3.6	.	.	1.5
O=S1(=O)CCC(NC(=S)SCc2ccccc2Br)C1 (stereo not given)	2680	1.8	-2.9	7.5	.	-16.3	4.9
CCN(CC)C(=O)CSc1nnc(CCCCCNC(=O)OC(C)(C)C)o1	15625	6.6	2.0	-5.7	-2.7	-13.9	2.3
CC1(C)CC(=O)C2=C(C1)OC(c1ccncc1)C(C#N)=C2N (stereo not given)	3495	5.5	4.2	1.8	-8.7	-19.7	2.7
COc1ccc(NC(=O)c2ccc(-c3ccc(-c4noc(C)n4)cc3C)cc2)cc1N1CCN(C)CC1	5917	-11.6	-6.0	12.3	.	-6.3	3.9
CC1CCCN(c2ccc(C(=O)NCc3cccs3)cn2)C1 (stereo not given)	10621	7.7	6.2	5.5	6.6	-48.5	-3.4
O=C(NN=Cc1ccc2cccc(OCc3ccccc3)c2n1)c1ccc(Br)cc1	.	-12.0	-1.4	6.0	.	.	3.3
CCCNC(=O)c1ccc(Cn2cc(-c3ccc(OC)cc3)nc2C(C)N)cc1 (stereo not given)	2905	1.0	-4.2	7.6	0.0	1.7	-1.6
Cc1cc(OCC(=O)NNC(=O)c2cccnc2)cc(C)c1Cl	5594	1.4	2.4	3.4	.	9.7	0.6
Cc1ccc(S(=O)(=O)CCC(=O)OCC(=O)Nc2cc(F)ccc2C)cc1	?	-2.7	-7.9	3.9	9.3	-1.2	0.3
COc1ccc(CCNC(=O)CN(C)S(=O)(=O)c2cccc3nsnc23)cc1OC	4707	1.6	-6.2	4.8	-5.4	-6.7	-1.8
NC(=O)CN1C(=O)NC(c2ccccc2)(c2ccccc2)C1=O	3733	6.1	0.6	3.6	2.9	-29.3	4.0
Cc1ccc(NC(=S)C2=C(O)c3sccc3N(C)S2(=O)=O)cc1	3094	-6.4	.	.	-1.6	-5.6	17.3
Cc1ccc(Cn2c(/C=C/c3ccco3)nc3ccccc32)cc1	3774	-18.8	-6.9	7.9	1.7	-43.5	-3.6
Continuation:
SMILES	Autofluor counter	Sa ugtP lethal	Mtb hypoxia inh	Mtb hypoxia inh growth	BJeLR viability	PrP UTR inh	Sa RN4220 lethal
O=C(Nc1cccc(-n2cnnn2)c1)c1cc(Cl)nc(Cl)c1	4191	6.4	7.7	-6.0	6.4	1.8	3.8
Cc1ccc(-n2[nH]c(C)c(/C=N/N3C(=O)c4cccc5cccc(c45)C3=O)c2=O)cc1	3459	.	.	.	10.7	-34.2	.
C=CCN(CC=C)C(=O)Cn1cnc([N+](=O)[O-])n1	2472	23.0	5.2	-1.3	0.0	-10.7	-1.7
CCOC(=O)c1cc(-c2ccccc2)nn1Cc1cc(CC)no1	2896	-3.2	4.4	12.8	-15.5	-31.8	2.6
COC(=O)C1=C(C)N=C2SCCC(=O)N2C1/C=C/c1ccccc1 (stereo not given)	3240	.	.	.	10.1	-18.1	.
O=C(OCC(=O)N1CCCC1)c1ccc(S(=O)(=O)N2CCOCC2)cc1	2193	5.7	11.6	5.1	0.5	-22.1	2.8
O=C(Nc1cccn2ncnc12)c1ccc(Cl)cc1Cl	5992	-0.8	10.8	7.6	5.3	-15.5	0.4
O=C(CSc1nc2ccccc2s1)Nc1ccc(Cl)c(S(=O)(=O)N2CCOCC2)c1	2549	-13.5	5.8	-5.5	12.1	-14.3	3.7
O=C(NN=Cc1cc([N+](=O)[O-])ccc1O)Nc1ccccc1	.	71.1	7.0	6.8	.	.	90.5*
COc1ccc(N2CCN(C(=O)CC3NC4CCCCC4NC3=O)CC2)cc1 (stereo not given)	22113*	-1.7	0.4	9.0	9.5	-11.4	0.3
CCN1CCN(c2nc3c(c(=O)[nH]2)CCCC3)CC1	7277	5.6	-0.3	1.1	4.2	9.0	3.3
CCC(c1nnnn1CCOC)N1CCN(C(=O)c2ccco2)CC1 (stereo not given)	4879	1.6	.	.	3.1	-10.1	-1.8
CCOc1cc2c(cc1OCC)-n1cccc1C(c1cccc([N+](=O)[O-])c1)NC2 (stereo not given)	3978	-12.6	-11.0	7.0	-7.2	-0.7	4.0
Cc1ccc2nc(C)cc(Cl)c2c1	2442	4.4	13.9	16.1	-13.8	-29.4	2.0
COc1ccc(-c2nnc(SCCC(=O)O)n2-c2ccccc2)cc1	10882	1.5	8.2	6.4	0.4	-15.5	3.1
COc1ccc(-c2noc(-c3ccccc3-c3ccccc3)n2)cc1OC	3236	5.4	-7.4	13.9	-2.0	-21.8	4.5
Cc1cc(C(=O)N/N=C/c2cc(Cl)cc([N+](=O)[O-])c2O)c2ccccc2n1	2513	.	.	.	-9.6	-14.5	.
Cc1ccc(-n2ncc3c(N4CCCC4)ncnc32)c(C)c1	?	-5.3	4.8	20.4	2.0	-32.2	-0.5

Assay outcomes from PubChem.
